# Source: PubChem (several laboratories)
# T cruzi inh = T. cruzi replication inhibition | T. cruzi beta-gal in NIH3T3, luminescence, 90 h | inhibition, % (no concentration beside the values) | 1.4% of 300,000 active;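 active = mean inhibition across valid replicates above about 55%, limit read from the data; inconclusive = mean below that limit but half or more replicates reach it; inactive = mean below it, under half of replicates reach it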;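 also: signal also drops with host cell toxicity which is not excluded here; 0% = plate median of DMSO wells and 100% = zero luminescence signal; higher percent means less beta-gal luminescence so fewer parasites; stock transfer was 50 nL into about 50 µL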
# Calb FLC = C. albicans growth modulation with fluconazole. C. albicans CaCi-2 (fluconazole-resistant clinical isolate) + fluconazole, Alamar Blue growth, 48 h. growth inhibition, % (concentration not given with the values). 0.57% of 300,000 active;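 active = most replicates above 75%; inconclusive = exactly half above 75%; inactive = most below 75%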;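 also: all wells also contain fluconazole at 8 µg/ml as a sub-toxic cotreatment; 0% = median of DMSO wells and 100% = median of geldanamycin control wells; wells of about 8 µL received 7.5 nL stock; the first replicate is given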
# RanGTP-Impb inh = inhibitors of RanGTP-importin-beta interaction, primary screen, biochemical, FRET, CFP-Ran, YFP-importin-beta, homogeneous; cell-free CFP-Ran/YFP-importin-beta FRET ratio; inhibition, % (no concentration beside the values); 1.1% of 300,000 active;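 active = most replicates above 15%; inconclusive = exactly half above 15%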;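 also: 0% = DMSO wells and 100% = Ran loaded with GDP instead of GTP; wells of about 40 µL received 100 nL stock; the first replicate is given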
# rRNA inh HTS = selective bacterial rRNA inhibition in E. coli; E. coli WT GFP vs humanized-ribosome RFP mutants, fluorescence, 24 h; stronger effect = lower value; DMSO median 0, no signal -100; 1.6% of 350,000 active; GFP signal change (wild-type ribosome), % (concentration not given with the values);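 active = significant combined selectivity score with lowered wild-type GFP, culture density cut under 30%, mutant RFP and density less affected; inactive = any of these conditions unmet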; also: one replicate is shown; some compounds called inactive have numbers as strong as hits
# A1 inh = inhibitors of the anti-apoptotic protein A1, read as caspase activation | MEF A1-2A-BIM cells, Caspase-Glo 3/7 luminescence, 3 h; percent of clofoctol response, vehicle zero | caspase activation, % (test concentration not listed) | 0.066% of 330,000 active | AID 2462;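 active = over half of replicate activation scores above 10%, or exactly half above 10 with the replicate mean above 10; inconclusive = replicate mean below 10 yet half the replicates above 10; inactive = over half of replicates below 10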;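 also: wells of about 30 µL received 50 nL stock; many hits fall short of the cut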
# Vif TR-FRET = HIV-1 Vif–A3G interaction blockers – biochemical, TR-FRET, GST-Vif 1-94, biotin-A3G peptide, dose response retest, primary screen (AID 1117319); TR-FRET GST-Vif / biotin-A3G peptide binding; higher % means a stronger effect; test concentration not given here; strong numbers were not always called active; inhibition, %; hits with a dose series show IC50 in µM; 0.57% of 260,000 active;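 active = above the screen mean plus three standard deviations and confirmed in dose response; inconclusive = results disagree or hit not tested in dose response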;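 also: Vif residues 1-94 fused to GST binding biotinylated APOBEC3G peptide 110-148; 0% = full assay without inhibitor and 100% = GST in place of GST-Vif; retest series ran down from 100 µM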
# Beta cell apopt = beta cell apoptosis inhibition; INS-1E cytokine-induced death, ATP luminescence, 48 h; percent of positive-control rescue, neutral wells zero; protection from apoptosis, % (test concentration not listed); 0.8% of 300,000 active; AID 435005;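 active = all replicates at 75% or more, or half of them and the mean; inconclusive = half reach 75% but not the mean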;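 also: 0% = cytokine-treated negative control wells and 100% = positive control rescue; higher means more ATP so stronger rescue from cytokine killing; wells of about 40 µL received 100 nL stock; the first replicate is given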
# AF4-AF9 inh = MLL-AF4/AF9 protein interaction inhibition. AlphaScreen, biotin-AF4 peptide binding to FLAG-AF9. P42568. inhibition, % at 10 µM. 0.47% of 350,000 active;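 active = every replicate reaching a set inhibition limit, whatever the replicate mean, cut at about 25% in these data; inconclusive = mean inhibition reaches that limit but some replicates miss it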;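 also: 0% = plate neutral control median and 100% = total signal loss; the record names both 10 and 1 µM as test concentration; the first replicate is given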
# Target sequence (P42568 whole entry, looked up): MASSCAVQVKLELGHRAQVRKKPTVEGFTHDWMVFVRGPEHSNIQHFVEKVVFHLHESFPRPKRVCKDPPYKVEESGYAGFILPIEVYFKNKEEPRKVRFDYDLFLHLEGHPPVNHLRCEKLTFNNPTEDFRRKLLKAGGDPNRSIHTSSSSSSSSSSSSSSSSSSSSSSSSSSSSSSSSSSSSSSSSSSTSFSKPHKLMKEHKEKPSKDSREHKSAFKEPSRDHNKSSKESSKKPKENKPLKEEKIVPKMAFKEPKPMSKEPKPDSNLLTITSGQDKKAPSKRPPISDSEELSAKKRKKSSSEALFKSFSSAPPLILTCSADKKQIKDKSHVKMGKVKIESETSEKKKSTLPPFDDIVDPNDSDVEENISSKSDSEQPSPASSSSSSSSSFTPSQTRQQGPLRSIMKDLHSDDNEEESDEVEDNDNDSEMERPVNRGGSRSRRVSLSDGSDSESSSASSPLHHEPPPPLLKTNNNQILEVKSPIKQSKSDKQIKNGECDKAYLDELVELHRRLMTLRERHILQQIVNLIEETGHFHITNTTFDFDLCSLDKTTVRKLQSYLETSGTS
# rRNA inh HTS OD600 = second read-out of rRNA inh HTS, no call of its own (marks repeat the call); OD600 change, %; measured here: OD600 growth;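 optical density of the mix in the first replicate; 0 = DMSO median and -100 = no signal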
# rRNA inh HTS RFP = recorded beside rRNA inh HTS, whose call it bears; RFP signal change, %; measured here: RFP humanized mutant strains;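 first replicate; 0 = DMSO median and -100 = no signal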
# * marks the source's active call; other numbers are inactive results; ? = inconclusive; · = not tested or not shown; & = joins results of further samples. Some of the compounds tested, so the mix of outcomes need not match the whole.
# The opening 2 compounds, ahead of the listing:
SMILES,T cruzi inh,Calb FLC,RanGTP-Impb inh,rRNA inh HTS,rRNA inh HTS OD600,rRNA inh HTS RFP,A1 inh,Vif TR-FRET,Beta cell apopt,AF4-AF9 inh
O=C(O)Cc1ccc(NS(=O)(=O)c2c(Cl)cccc2Cl)cc1,-4.4,-16.6,0.1,10.9,0.5,-3.5,0.9,9.9%,1.7,-1.9
COc1ccc(NC(=S)NC(=O)c2cccnc2)cc1,-11.2,1.4,-0.5,2.8,-5.7,-1.0,-0.2,0.6%,-5.1,-1.3

# The list itself (from the top)
SMILES,T cruzi inh,Calb FLC,RanGTP-Impb inh,rRNA inh HTS,rRNA inh HTS OD600,rRNA inh HTS RFP,A1 inh,Vif TR-FRET,Beta cell apopt,AF4-AF9 inh
O=C(O)Cc1ccc(NS(=O)(=O)c2c(Cl)cccc2Cl)cc1,-4.4,-16.6,0.1,10.9,0.5,-3.5,0.9,9.9%,1.7,-1.9
COc1ccc(NC(=S)NC(=O)c2cccnc2)cc1,-11.2,1.4,-0.5,2.8,-5.7,-1.0,-0.2,0.6%,-5.1,-1.3
CC(C)CC1C2C(=O)N(c3ccccc3)C(=O)C2ON1c1ccccc1 (stereo unspecified),2.8,8.4,2.3,3.2,2.4,-0.1,0.4,-1.7%,-3.6,-5.5
CCC(C)(C)n1nnnc1C(c1ccc(OC)cc1)N1CCN(C(=O)c2ccco2)CC1 (stereo unspecified),-4.1,2.2,-4.0,-2.3,-3.3,-1.9,0.4,1.6%,1.4,3.2
C#CCn1c(=NC(=O)c2sc3ccccc3c2Cl)sc2cc(S(N)(=O)=O)ccc21,7.7,16.8,2.6,·,·,·,0.4,12.2%,-0.7,·
Cc1ccc(-c2nn3c(C)nnc3s2)cc1NCc1c(F)cccc1Cl,20.4,5.0,4.0,·,·,·,0.1,-12.3%,24.4,·
O=C(NCCc1ccccc1)C1CCC(=O)N1CCc1ccccc1 (stereo unspecified),-4.1,3.3,-0.9,6.6,14.9,-0.3,1.2,-0.6%,·,-2.2
Cc1ccc2cc(CCNC(=O)c3cccs3)c(=O)[nH]c2c1,·,·,·,-9.8,-6.6,2.0,0.4,-18.4%,-6.0,3.5
COc1ccc(/C=N/NC(=O)COc2ccc(Cl)cc2Cl)cc1Cn1nc(C)cc1C,16.8,-38.3,0.9,11.8,10.1,2.0,0.8,·,6.3,-1.4
Cc1cccc(N(C(=O)CNC(=O)c2ccco2)C(C(=O)NCC2CCCO2)c2ccccc2)c1 (stereo unspecified),-15.1,?,-0.1,3.8,-0.5,-2.0,0.7,6.4%,-2.9,2.8
Cc1ccc(C(=O)Oc2cccc(NC(=O)c3cccs3)c2)cc1S(=O)(=O)N1CCOCC1,-0.8,-9.5,-0.4,·,·,·,0.8,?,-6.5,·
O=C(COC(=O)c1ccc([N+](=O)[O-])cc1)Nc1ccc(Cl)cn1,-6.6,5.6,2.1,8.9,12.6,1.4,1.8,·,4.6,5.1
Cc1ccc(Nc2nnc(SCc3ccccc3)s2)cc1,32.1,-8.7,0.9,·,·,·,-0.9,-1.7%,-0.7,·
O=C(CCn1c(=O)oc2ccccc21)Nc1nccs1,-10.1,1.0,-3.0,·,·,·,-0.2,-4.0%,0.3,·
CCN1CCN(C(=O)/C=C/c2ccc(OC)c(OC)c2)CC1,-1.4,-3.0,3.0,18.5,18.6,1.6,1.2,-1.5%,2.7,2.3
COC(=O)Cc1c(C)c2ccc(OC3CCCCC3=O)c(C)c2oc1=O (stereo unspecified),2.7,0.2,-0.7,-1.3,-4.1,-0.5,1.1,-2.3%,24.5,0.2
O=C(O)[C@H](Cc1ccccc1)NC(=O)N1CCN(c2ccc(F)cc2)CC1,1.1,-1.4,1.8,4.6,3.8,-1.5,-0.5,5.1%,4.8,·
CCCCOc1ccc(NC2=NC3(CCCC3)N=C(N)N2)cc1,-1.3,-2.0,-1.3,·,·,·,-0.1,5.2%,-3.4,·
CCOC(=O)N1CCN(c2nc3ccccc3n3cnnc23)CC1,7.6,-0.8,5.4,-17.3*,2.0*,4.5*,0.3,-9.2%,-4.6,-54.7
Cc1noc2ncnc(N3CCN(c4cccc(Cl)c4)CC3)c12,9.5,?,1.4,24.7,20.6,-1.3,-0.2,3.8%,23.4,-2.6
O=C(CSc1n[nH]c(-c2ccco2)n1)Nc1ccc(Br)cc1,-8.6,-1.7,1.2,-49.6,-67.1,-14.1,-0.5,·,-2.0,-1.8
CCOC(=O)/C(=N\Nc1ccccc1)P(=O)(c1ccccc1)c1ccccc1,8.6,13.1,-1.2,-36.8*,-9.4*,0.2*,-0.3,11.2%,-11.6,8.0
O=C(c1ccncc1)N1N=C(c2ccc(Cl)cc2)CC1c1ccccc1O (stereo unspecified),12.5,1.6,-9.3,-31.8,-63.1,11.3,-1.2,·,-3.0,3.3
COc1cc(/C=C/C(=O)c2ccc(F)cc2)cc(OC)c1OC,6.6,-0.7,0.4,-4.7,-4.7,0.0,0.2,-1.6%,-19.8,1.7
CN(C(=O)COC(=O)C1CCN(S(=O)(=O)c2ccc3c(c2)OCCO3)CC1)c1ccccc1,-7.6,-3.0,1.5,-0.9,-7.7,4.3,1.6,-0.8%,-1.5,-4.1
Cc1ccc(C(=O)Nc2ccccc2C(=O)NCc2ccco2)cc1S(=O)(=O)N1CCCCC1,11.5,23.1,-3.8,·,·,·,-0.7,20.0%,4.1,·
CCn1c(=O)n(CC)c2cc(N3CCCC3)c(NC(=O)c3ccc(C)c([N+](=O)[O-])c3)cc21,45.5,8.9,-1.8,4.4,1.9,1.7,-0.5,·,9.0,10.3
Cn1c(CSc2nc3ccc(Br)cc3[nH]2)nc2ccccc21,24.8,-3.2,4.1,-21.6*,-5.3*,2.1*,-0.3,0.7%,5.3,-7.4
COCCNC(=S)N1CCN(C)CC1,1.3,6.8,-3.3,3.9,-3.7,-2.1,0.0,-3.2%,-0.2,-15.6
O=C(CCS(=O)(=O)c1ccc(Br)cc1)NCc1cccs1,1.3,-2.3,-2.2,·,·,·,0.6,?,-2.7,·
CCCc1cc(=O)[nH]c(SCC(=O)c2c(C)[nH]c3ccccc23)n1,-2.4,-2.9,1.6,-1.5,2.2,-4.1,0.5,65.2%,1.7,-6.7
O=C(COC(=O)c1cccc(S(=O)(=O)N2CCCC2)c1)NCc1ccccc1,4.3,-6.5,-2.4,7.1,3.3,0.9,-0.8,-0.7%,-3.6,-2.3
Cn1cccc1/C=C(\C#N)c1ccccc1,0.4,7.1,2.1,0.1,7.4,-1.3,0.1,9.6%,-11.5,1.6
CCOc1ccc(N2C(=O)CC(N(Cc3ccco3)C(C)=O)C2=O)cc1 (stereo unspecified),-14.5,-1.3,-4.2,8.2,9.0,1.4,0.0,·,-6.2,-1.7
Cc1ccc(S(=O)(=O)N(CC(O)CN2C(=O)NC(C)(C)C2=O)c2cccc([N+](=O)[O-])c2)cc1 (stereo unspecified),-5.0,14.2,4.3,-4.5,3.4,-4.0,0.1,·,-7.3,4.6
COc1ccc(NC(=O)N2CCCC2C(=O)Nc2ccccc2F)cc1 (stereo unspecified),-7.4,-13.6,2.8,4.3,3.2,0.5,-0.8,·,0.7,1.1
O=C(COC(=O)c1ccc(NS(=O)(=O)c2cccs2)cc1O)NC1CCCCC1,15.4,4.5,-2.4,-10.5,-21.8,10.1,0.8,-3.7%,-1.2,0.2
CC(C)Cc1nc2sc3c(NCc4ccco4)ncnc3c2c2c1COC(C)(C)C2,16.1,14.7,1.2,·,·,·,1.0,9.0%,-6.3,·
CCc1cc(=O)oc2cc3occ(C)c3cc12,-2.8,-4.7,0.3,·,·,·,-0.2,5.8%,-1.4,·
CCOc1cc(NC(=O)Nc2ccccc2)c(OCC)cc1NC(=O)CC,-28.4,29.9,5.9,10.5,1.9,-0.6,0.1,·,-2.6,-0.6
COc1ccc(C(=O)Cn2nnc(-c3ccccc3NC(=O)C3CC3)n2)cc1,1.8,4.0,3.5,·,·,·,-0.1,6.9%,-2.3,·
CCCN(CC(=O)Nc1ccccc1C)C(=O)Cc1c(C)nc2ccccc2c1C,·,·,·,8.9,6.0,6.1,0.7,·,-2.2,-0.4
COc1ccc(C(=O)NC(=S)NCc2ccco2)cc1Br,9.8,1.7,0.5,4.0,0.9,6.1,-1.2,·,6.0,2.3
COc1cccc(CN(C)C(=O)CNC(=O)c2sc3ccccc3c2Cl)c1OC,10.3,13.9,7.5,-9.2,-38.8,4.2,0.8,3.0%,-2.0,0.9
CCOc1ccccc1NC(=O)c1ccccc1N(C)S(C)(=O)=O,-15.7,-0.4,-2.0,·,·,·,0.7,-0.1%,-11.5,·
C[C@H](CO)N1C[C@H](C)[C@@H](CN(C)Cc2ccncc2)Oc2ccc(NC(=O)Cn3cnnn3)cc2C1=O,·,·,·,0.2&0.7,3.3&-7.5,-1.5&-1.7,0.0,·,-0.3,-1.7&1.8
CCC(C)c1ccc(OCCCCN2CCOCC2)cc1 (stereo unspecified),-7.7,14.4,4.6,·,·,·,0.0,28.7%,3.8,·
CC(=Nc1ccccc1O)c1sc2ccccc2c1O,-3.0,0.8,?,-29.7,-25.1,-4.9,-1.9,5.8%,-9.2,3.9
COc1cc(NC(=O)c2ccccc2)c(OC)cc1NC(C)=O,-7.6,21.8,4.7,·,·,·,0.0,6.0%,·,·
OC(COc1ccc2c(c1)CCC2)Cn1cnc2ccccc21 (stereo unspecified),-29.1,3.8,-0.4,·,·,·,0.4,28.8%,15.3,·
# New compounds follow:
SMILES,T cruzi inh,Calb FLC,RanGTP-Impb inh,rRNA inh HTS,rRNA inh HTS OD600,rRNA inh HTS RFP,A1 inh,Vif TR-FRET,Beta cell apopt,AF4-AF9 inh
Cc1cccc(COCC(Cc2ccccc2)N2CCN(C(=O)c3cccc(Cl)c3)CCC2=O)c1 (stereo unspecified),11.0,-6.8,4.3,-17.3,-23.9,-1.4,-0.2,8.7%,-0.6,-0.1
CCC(C)[C@H](NC(=O)N1CC(=O)Nc2ccccc21)C(=O)N[C@H](Cc1c[nH]c2ccccc12)C(=O)O (stereo partly specified),-0.9,0.1,?,·,·,·,-0.2,·,-1.5,-1.7
COc1ccc(-c2nnc(SCc3nc4ccccc4c(=O)[nH]3)o2)cc1,0.6,15.8,-1.1,4.2,8.2,-3.9,-0.5,3.4%,-7.6,-5.8
CN(C)Cc1c(O)ccc2cc(-c3nc4ccccc4n3C)c(=O)oc12,-11.4,-3.5,132.4*,-0.1,1.9,-3.1,0.0,·,11.5,-2.6
O=C(O)/C=C/C(=O)Nc1ccc(F)cc1F,-4.1,3.1,6.3,10.2,6.4,-3.5,0.9,-4.0%,-8.0,3.9
COC(=O)CSc1nc2ccccc2c(=O)n1Cc1ccccc1,-7.9,8.0,5.1,-19.4,-24.9,-5.4,-0.4,-11.7%,-5.4,3.9
